High-throughput results (PubChem)
Menin-MLL FL inh: menin-MLL binding inhibition, fluorescein peptide | Fluorescence polarization, fluorescein-MLL peptide displacement from menin | FP activity change, % at 61.4 µM | 290,000 tested, under 10 active; inconclusive = falling polarisation curve, or a change in total fluorescence; inactive = total fluorescence flat and polarisation flat or rising; no compound was filed as active; the % refers to the polarisation; negative = inhibition;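 also: % of control where 0% means no effect; inhibitors lower the polarisation; unlabelled MLL peptide was the positive control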
Sfp inh: blocks B. subtilis Sfp PPTase activity; Biochemical Sfp PPTase activity, qHTS; AID 1490; actives 3.5% (n = 310,000); Potency, µM, for inactives: max response, negative = inhibition, actives largely listed as inhibitors; active = well fitted inhibition curve with a large enough effect; inconclusive = small, poorly fitted or top-dose-only effect, or another doubt; inactive = no such curve, though single readings can be large or run the other way;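 also: the enzyme is Sfp with the accession as filed and its product quenches rhodamine fluorescence; potency is read from the fitted curve at half-maximal effect; 0% = enzyme reaction without inhibitor and -100% = no enzyme wells; top concentration of the series not given in the record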
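Sfp 15 nM + cpd, 15 min RT; start w/ rhodamine-CoA 5 uM, BHQ-2-YbbR 12.5 uM (final); 50 mM Hepes pH 7.6, 10 mM MgCl2, 0.01% NP-40, 0.01% BSA; read 525/598 nm at 0 and 30 min.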
Starred values were filed as active, the others as inactive; [ ] = dose if it differs, or a comment. Not all compounds are listed, so the mix of outcomes need not match the whole.

Results for CC(C)[C@@H](CC(=O)N[C@@H]1CCCC[C@H]1C(=O)N[C@H](CC(=O)N[C@@H](CCC(=O)O)CC(=O)O)Cc1c[nH]c2ccccc12)NC(=O)C[C@H](CO)NC(=O)[C@@H]1CNCC[C@H]1N ?
Menin-MLL FL inh: 0.7; Sfp inh: 8%

What do the screens show for `Cc1noc(C)c1S(=O)(=O)NCCCN1CCN(Cc2ccccc2)CC1`?
Menin-MLL FL inh: 0.8; Sfp inh: 12%

Results for C[C@@H](C(=O)Nc1ccc2ccccc2c1)[C@H]1C[C@]1(C)[C@H](N)c1ccccc1 ?
Menin-MLL FL inh: 0.8; Sfp inh: -7%

What do the screens show for `C=CCC(C)(NCc1ccccc1)C(=O)OCC` (stereo not given)?
Menin-MLL FL inh: 3.7; Sfp inh: -27%

Results for Cc1cc2c(nc1C)CCCN2CC(O)CN1CCCc2nc(C)c(C)cc21 ?
Menin-MLL FL inh: 1.7[11.7 µM]; Sfp inh: 0%

How did CCN1CCN(C(=O)NC(C(=O)NC2C(=O)N3C2SC(C)(C)C3C(=O)O)c2ccccc2)C(=O)C1=O (stereo not given) do in these assays?
Menin-MLL FL inh: 0.4; Sfp inh: 1%

Results for CC[C@H](C)[C@H](NC(=O)[C@H](Cc1ccc(O)cc1)NC(=O)[C@@H]1CCCN1C(=O)[C@@H](NC(=O)[C@@H](N)CCCCN)[C@@H](C)CC)C(=O)N[C@@H](CC(C)C)C(=O)O ?
Menin-MLL FL inh: inconclusive; Sfp inh: 15%

Results for FC(F)(F)c1cc(C(F)(F)F)c2ccc(N/N=C/c3cccc(Cl)c3)nc2n1 ?
Menin-MLL FL inh: 2.5; Sfp inh: 18%

How did Cc1ccc(S(=O)(=O)NN2C(=O)/C(=C/c3cccn3C)SC2=S)cc1 do in these assays?
Menin-MLL FL inh: inconclusive; Sfp inh: -17%

How did CC[C@H](C)[C@H](NC(=O)[C@H](CCC(=O)O)NC(=O)CNC(=O)[C@H](CCCCN)NC(=O)[C@H](CCC(=O)O)NC(=O)[C@H](CCSC)NC(=O)[C@H](CCSC)NC(=O)[C@H](CCSC)NC(=O)[C@H](CCC(=O)O)NC(=O)CNC(=O)[C@H](CO)NC(=O)[C@H](CO)NC(=O)[C@H](CO)NC(=O)[C@@H](N)CC(N)=O)C(=O)N[C@@H](CCCCN)C(=O)O do in these assays?
Menin-MLL FL inh: -0.4; Sfp inh: 0%

Results for CCC(=S)/C=C1\Sc2ccc3ccccc3c2N1CCCS(=O)(=O)O ?
Menin-MLL FL inh: 17; Sfp inh: 35µM*

How did C#CCOCCOCCOCCNc1nc(N2CCN(C(=O)[C@H](CCC(=O)O)n3cc(C(N)CO)nn3)CC2)nc(N2CCN(C(=O)[C@H](CCC(=O)O)n3cc(C(N)CC(C)C)nn3)CC2)n1 (stereo not given in full) do in these assays?
Menin-MLL FL inh: -3.8; Sfp inh: 89µM*

What do the screens show for `Cn1c(=O)c2c(nc(NCc3ccccc3)n2Cc2ccc(F)cc2)n(C)c1=O`?
Menin-MLL FL inh: 1.0; Sfp inh: -18%

What do the screens show for `c1ccc2c(-c3cn4ccccc4n3)c[nH]c2c1`?
Menin-MLL FL inh: 3.5; Sfp inh: -7%

Results for COC(=O)N1CC=CC1(C)C(=O)NCc1ccc(C)o1 (stereo not given) ?
Menin-MLL FL inh: inconclusive; Sfp inh: inconclusive

What do the screens show for `c1ccc(Cc2ccc(OCCCNC3CCCC3)cc2)cc1`?
Menin-MLL FL inh: -1.8; Sfp inh: inconclusive

Results for COc1cccc(N2CCN(c3ncnc4c3[nH]c3ccccc34)CC2C)c1 (stereo not given) ?
Menin-MLL FL inh: -2.3; Sfp inh: 6%

How did C=CCC(O)CC1C2C(CC(O)CC=C)C3C1C3C2OC(C)(C)C (stereo not given) do in these assays?
Menin-MLL FL inh: -0.6[11.7 µM]; Sfp inh: 1%

Results for CCCCC(=O)N1C/C=C\C(c2ccc(OC)cc2)N(Cc2ccc(F)cc2)C(=O)C1Cc1ccccc1 (stereo not given) ?
Menin-MLL FL inh: 0.9; Sfp inh: -2%

How did COc1ccc2[nH]c(-c3ccc(F)cc3F)cc(=O)c2c1 do in these assays?
Menin-MLL FL inh: 0.7[94.6 µM]; Sfp inh: 5%

What do the screens show for `CC1CCC2C(=O)N3C(CCC(C)[C@@H]3c3ccc(-c4ccco4)cc3)C(=O)N2C1c1cccc(N2CCCC2=O)c1` (stereo not given in full)?
Menin-MLL FL inh: 11[11.7 µM]; Sfp inh: inconclusive

What do the screens show for `CCN1C(=O)[C@H]2[C@H]3[C@H](O)[C@H](O)C/C(=N/O[C@@H](C)c4cn([C@H]5COC[C@H]5O)nn4)[C@@H]3CC[C@@H]2C1=O`?
Menin-MLL FL inh: -0.9[11.7 µM]; Sfp inh: 3%

Results for CCN(CC)c1ccc(C(=C2C=CC(=[N+](CC)Cc3cccc(S(=O)(=O)[O-])c3)C=C2)c2ccc(N(CC)Cc3cccc(S(=O)(=O)O)c3)cc2)cc1 ?
Menin-MLL FL inh: inconclusive; Sfp inh: inconclusive

Results for NC(=O)NCCC[C@H](N)C(=O)O ?
Menin-MLL FL inh: -2.3; Sfp inh: 5%

What do the screens show for `O=C1CCCC2[C@@H]3CCC[N@+]4([O-])CCC[C@H](CN12)C34` (stereo not given in full)?
Menin-MLL FL inh: -1.1; Sfp inh: -10%

Results for Cc1nc(C2CCC3C4CCC5=CC(=O)CC[C@]5(C)C4CC[C@]23C)cs1 (stereo not given in full) ?
Menin-MLL FL inh: -2.8; Sfp inh: 79µM*

What do the screens show for `COc1ccc(/C=C/C(=O)c2cccs2)cc1OC`?
Menin-MLL FL inh: inconclusive; Sfp inh: inconclusive

Results for CC(C)C[C@H](NC(=O)[C@H](Cc1ccccc1)C[C@@H](O)[C@H](Cc1ccccc1)NC(=O)OC(C)(C)C)C(=O)N[C@@H](Cc1ccccc1)C(N)=O ?
Menin-MLL FL inh: -1.0; Sfp inh: -12%

How did CC1=C(C)CC(c2ccccc2)C(C(=O)c2ccccc2O)C1 (stereo not given) do in these assays?
Menin-MLL FL inh: 0.1[11.7 µM]; Sfp inh: 3%

How did C[C@@H](O)CNC(C)(C)CC(=O)N[C@@H]1CCc2ccccc2N(Cc2ccc(-c3ccccc3-c3nn[nH]n3)cc2)C1=O do in these assays?
Menin-MLL FL inh: 0.7; Sfp inh: 3%

Arranged by formula weight (largest number first): part of the list above
Results for CC(C)[C@@H](CC(=O)N[C@@H]1CCCC[C@H]1C(=O)N[C@H](CC(=O)N[C@@H](CCC(=O)O)CC(=O)O)Cc1c[nH]c2ccccc12)NC(=O)C[C@H](CO)NC(=O)[C@@H]1CNCC[C@H]1N ?
Menin-MLL FL inh: 0.7; Sfp inh: 8%

Results for CC(C)C[C@H](NC(=O)[C@H](Cc1ccccc1)C[C@@H](O)[C@H](Cc1ccccc1)NC(=O)OC(C)(C)C)C(=O)N[C@@H](Cc1ccccc1)C(N)=O ?
Menin-MLL FL inh: -1.0; Sfp inh: -12%

How did Cc1ccc(S(=O)(=O)NN2C(=O)/C(=C/c3cccn3C)SC2=S)cc1 do in these assays?
Menin-MLL FL inh: inconclusive; Sfp inh: -17%

Results for Cc1cc2c(nc1C)CCCN2CC(O)CN1CCCc2nc(C)c(C)cc21 ?
Menin-MLL FL inh: 1.7[11.7 µM]; Sfp inh: 0%

What do the screens show for `c1ccc(Cc2ccc(OCCCNC3CCCC3)cc2)cc1`?
Menin-MLL FL inh: -1.8; Sfp inh: inconclusive

What do the screens show for `COc1ccc(/C=C/C(=O)c2cccs2)cc1OC`?
Menin-MLL FL inh: inconclusive; Sfp inh: inconclusive

What do the screens show for `c1ccc2c(-c3cn4ccccc4n3)c[nH]c2c1`?
Menin-MLL FL inh: 3.5; Sfp inh: -7%

Pulled one by one from above (4):
Results for CCN(CC)c1ccc(C(=C2C=CC(=[N+](CC)Cc3cccc(S(=O)(=O)[O-])c3)C=C2)c2ccc(N(CC)Cc3cccc(S(=O)(=O)O)c3)cc2)cc1 ?
Menin-MLL FL inh: inconclusive; Sfp inh: inconclusive

How did CC1=C(C)CC(c2ccccc2)C(C(=O)c2ccccc2O)C1 (stereo not given) do in these assays?
Menin-MLL FL inh: 0.1[11.7 µM]; Sfp inh: 3%

Results for Cc1cc2c(nc1C)CCCN2CC(O)CN1CCCc2nc(C)c(C)cc21 ?
Menin-MLL FL inh: 1.7[11.7 µM]; Sfp inh: 0%

What do the screens show for `Cc1noc(C)c1S(=O)(=O)NCCCN1CCN(Cc2ccccc2)CC1`?
Menin-MLL FL inh: 0.8; Sfp inh: 12%

(further entries)
Results for Nc1nc2n(n1)C1(CCCCC1)C1=C(CCCC1)N2 ?
Menin-MLL FL inh: -2.0; Sfp inh: -1%

What do the screens show for `CO/N=C(/C(=O)NC1C(=O)N2C(C(=O)O)=C(COC(N)=O)CSC12)c1ccco1` (stereo not given)?
Menin-MLL FL inh: 2.3; Sfp inh: -27%

How did O=C(CSc1nnc(SCc2cccc3ccccc23)s1)N=Nc1c(O)[nH]c2ccccc12 do in these assays?
Menin-MLL FL inh: 3.2; Sfp inh: 11%

How did CC(=O)NC(Cc1ccccc1C)C(=O)NC1CCN(c2ncccc2[N+](=O)[O-])CC1 (stereo not given) do in these assays?
Menin-MLL FL inh: 0.6; Sfp inh: -13%

What do the screens show for `Nc1ccccc1NC(=O)c1ccc(CNC(=O)OCc2cccnc2)cc1`?
Menin-MLL FL inh: -1.9; Sfp inh: 9%

What do the screens show for `COc1nc(N)nc2c1ncn2[C@@H]1O[C@H](CO)[C@@H](O)[C@@H]1O`?
Menin-MLL FL inh: inconclusive; Sfp inh: -4%

What do the screens show for `Cn1c(=O)c2c3c(sc2n2c(SCc4ccc5c(c4)OCO5)nnc12)COC(C)(C)C3`?
Menin-MLL FL inh: -3.5; Sfp inh: 6%

How did COC(=O)[C@@]1(Cc2ccc(OC)cc2)[C@H]2c3cc(C(=O)N(C)C)n(CCc4c[nH]c5ccc(O)cc45)c3C[C@H]2CN1C(=O)c1ccccc1 do in these assays?
Menin-MLL FL inh: -0.9; Sfp inh: 12%

Results for COC(=O)c1ccc(C(NC(=O)OCc2ccccc2)/C(I)=C/[C@@H](C)C(=O)NCC2CC2)cc1 (stereo not given in full) ?
Menin-MLL FL inh: 1.2; Sfp inh: 40%[activator]

How did O=C(Nc1cc(Cl)cc2c1[nH]c1cnccc12)c1cccnc1 do in these assays?
Menin-MLL FL inh: -4.8; Sfp inh: -15%

What do the screens show for `Cc1c(CC(=O)N[C@@H](CCCNC(N)=O)C(=O)O)c(=O)oc2cc3oc4c(c3cc12)CCCC4`?
Menin-MLL FL inh: -11; Sfp inh: 5%

What do the screens show for `O=C(O)c1ccccc1Cc1ccccc1`?
Menin-MLL FL inh: 0.0; Sfp inh: 2%

What do the screens show for `COC(=O)CC1C(C)(C)C2(O)OC34CC2C(=O)[C@@]1(C)C3CC[C@]1(C)C4=CC(=O)OC1c1ccoc1` (stereo not given in full)?
Menin-MLL FL inh: 1.5; Sfp inh: -7%

Results for CC(NC(=O)Cc1cc(F)cc(F)c1)C(=O)NC(C(=O)OC(C)(C)C)c1ccccc1 (stereo not given) ?
Menin-MLL FL inh: -0.5; Sfp inh: 6%

Results for COc1cccc(C(=O)NCC2CCCO2)c1 (stereo not given) ?
Menin-MLL FL inh: -0.4; Sfp inh: -2%

What do the screens show for `O=C(O)[C@H]1C(=CCO)O[C@H]2CC(=O)N12`?
Menin-MLL FL inh: 0.1; Sfp inh: 8%

Results for COc1cc(C2c3cc4c(cc3C(O[C@@H]3OC5COC(c6cccs6)OC5C(O)C3O)C3COC(=O)C23)OCO4)cc(OC)c1O (stereo not given in full) ?
Menin-MLL FL inh: -0.6; Sfp inh: 15%

Results for O=C(O)c1ccc(Nc2nc(-c3cccnc3)nc3ccccc23)cc1 ?
Menin-MLL FL inh: 0.4; Sfp inh: 13%

How did CCc1ccc(Nc2n[n+](C)c(-c3ccc(C(=O)O)cc3)s2)cc1 do in these assays?
Menin-MLL FL inh: inconclusive; Sfp inh: 11%

What do the screens show for `COC(=O)c1ccc(C(NC(=O)OCc2ccccc2)/C(C)=C/[C@@H](C)C(=O)NCCN2CCOCC2)cc1` (stereo not given in full)?
Menin-MLL FL inh: -4.4; Sfp inh: 25%

How did CCCOc1ccc(/C(O)=C2/C(=O)C(=O)N(CCOC)C2c2cccnc2)cc1 (stereo not given) do in these assays?
Menin-MLL FL inh: 1.8; Sfp inh: -2%

What do the screens show for `Cc1ccccc1Nc1nnc(SCC(=O)NC(=O)Nc2ccc3c(c2)OCCO3)s1`?
Menin-MLL FL inh: 9.9; Sfp inh: -25%

What do the screens show for `C=CC(=O)c1ccc(CCCCCC)cc1`?
Menin-MLL FL inh: inconclusive; Sfp inh: inconclusive

Results for CC1(C)S[C@@H]2[C@H](NC(=O)COc3ccccc3)C(=O)N2C1C(=O)OCc1cc2ccccc2n1S(=O)(=O)c1ccccc1 (stereo not given in full) ?
Menin-MLL FL inh: 12; Sfp inh: 7%

How did NC1=NCCCC1 do in these assays?
Menin-MLL FL inh: inconclusive; Sfp inh: -13%

What do the screens show for `CCn1c(SCC(=O)Nc2cc(NC(C)=O)ccc2OC)nnc1-c1ccncc1`?
Menin-MLL FL inh: -3.7; Sfp inh: 9%

Results for Cc1ccc(Cn2c(SCC(=O)Nc3cccc(C)n3)nc3c2c(=O)n(C)c(=O)n3C)cc1 ?
Menin-MLL FL inh: 2.2; Sfp inh: 0%
